Source: PubChem BioAssay (National Center for Advancing Translational Sciences (NCATS))
HSD17B inhib: inhibitors of human HSD17B10 dehydrogenase | hit rate 7.6% among 75,000 | recombinant HSD17B10, NADH fluorescence kinetic; many of its hits are not listed in these tables | Potency, µM (series often up to 57.1 µM), for the others: at the highest dose activity change, negative = inhibition, hits mostly inhibitors | Q99714; active means well fitted inhibition curve with a large enough effect; inconclusive means small, poorly fitted or top-dose-only effect; inactive means no such curve, though single readings can be large or run the other way;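 further: the protocol describes HADH2 (HSD17B10) and not the HSD17B4 of the title; nearly all actives have a fitted effect of over 70% in size; most hits overshoot -100% by far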
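Enzyme plus compound, 15 min room temperature; substrate mix added (NAD+ 1 mM, beta-hydroxybutyryl-CoA 90 uM final); plates read kinetically for NADH fluorescence. HADH2 was His-tagged, E. coli-derived, 20 nM.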
The depositor's hits bear a star; ? = inconclusive; [ ] = remark or other dose. On the % scale 0 is the no-effect control and ±100 the full control effect; potency means the concentration at half of the fitted maximal effect. Not all compounds are listed. The share of hits here may be higher or lower than overall.

SMILES	HSD17B inhib
Cc1cc(C(=O)N2CC(C)CC(C)C2)n(-c2ccccc2)n1 (stereo unspecified)	7%
Cc1cc(C)c(S(=O)(=O)NCCCN2CCOCC2)cc1Br	8%
Cn1c2ccccc2c2c(C(=O)N3CCN(c4ccccc4)CC3)cn(C3CCCC3)c(=O)c21	?
COC(=O)c1cc2ccsc2n1CC(=O)Nc1cc(Cl)ccc1OC	-9%
CCC(=O)n1nc(-c2ccco2)nc1N	-1%
O=C(Nc1cccc(F)c1)C1CC(=O)N(c2ccc(Br)cc2)C1 (stereo unspecified)	-3%
CCCCN(C)CCNC(=O)Cn1ncc2c(=O)oc3ccc(C)cc3c21	1%
CN1CCN(CCCC(=O)c2ccc(F)cc2)CC1	-9%
COc1cccc(Nc2ncc(C(=O)O)c3ccccc23)c1	6%
O=C(c1n[nH]c(=O)c2ccccc12)N1CCN(c2ccccc2)CC1	5%

Exported with each value named: part of the list above.
CCC(=O)n1nc(-c2ccco2)nc1N
  HSD17B inhib = -1%
O=C(Nc1cccc(F)c1)C1CC(=O)N(c2ccc(Br)cc2)C1 (stereo unspecified)
  HSD17B inhib = -3%
CCCCN(C)CCNC(=O)Cn1ncc2c(=O)oc3ccc(C)cc3c21
  HSD17B inhib = 1%
CN1CCN(CCCC(=O)c2ccc(F)cc2)CC1
  HSD17B inhib = -9%

The list goes on:
SMILES	HSD17B inhib
CCO/C=C/C(O)(CNC(=O)COc1ccccc1F)C(F)(F)F (stereo unspecified)	1%
C[C@@H]1C=C[C@](Cc2ccccc2)(C(=O)NCCN2CCOCC2)N1C(=O)c1ccccc1	5%
CCOc1ccccc1CNC(=O)C1CCN(c2nc3ccccc3o2)CC1	2%
CO/N=C\[C@@H](NS(=O)(=O)c1ccc(C)cc1)[C@H](C)/C=C\CC(=O)OC	-3%[11.4 µM]
Cc1nc2ccccc2n1CC(O)Cn1c(C(F)(F)F)nc2ccccc21 (stereo unspecified)	5%
C[C@@H](C(=O)Nc1ccc2ccccc2c1)[C@H]1C[C@]1(C)[C@H](NS(=O)(=O)c1ccc(-c2ccccc2)cc1)c1ccccc1	-10%
O=C1C2C3C=CC(C3)C2C(=O)N1c1ccc2c(c1)OCO2 (stereo unspecified)	-1%
CCOCCn1c(CN(Cc2ccccc2)Cc2ccccc2)nc2c1c(=O)[nH]c(=O)n2C	2%
O=C(NCc1ccccc1)N[C@@H](Cc1c[nH]c2ccccc12)C(=O)O	-4%
O=C(c1ccccc1)N1CCCCC(S(=O)(=O)c2ccccc2)C1=O (stereo unspecified)	14%
Cc1ncc(CSc2nnnn2-c2ccccc2)c(N)n1	1%
Cc1cc(NCCCN2CCOCC2)n2nc(C)c(-c3ccccc3)c2n1	-12%
Cc1ccccc1CN1CCN(CC(=O)NCc2ccco2)C1=O	-4%
CCC(=O)c1ccccc1OCCCN1C(=O)NC(C)(C)C1=O	-16%
O=C(CSc1nnc(-c2cccs2)n1-c1ccccc1)NCc1ccco1	7%
CC(C)C[C@@H](N)C(=O)Nc1ccc2ccccc2c1	2%[11.4 µM]
Cn1nnnc1SCC(=O)Nc1ccc(Br)cc1Cl	0%
Cc1ccc2cc(CN(Cc3ccc4c(c3)OCO4)Cc3nnnn3Cc3ccco3)c(=O)[nH]c2c1	-16%
CCOC(=O)CNC(=O)Nc1cc(C(C)(C)C)nn1-c1ccccc1	11%
CN(C)C(=S)c1ccc2ccccc2n1	7%
COc1ccc(NC(=O)N2CCC3(CC2)CCN(C(=O)c2ccco2)CC3)cc1	1%
CCOC(=O)CNC(=O)CSc1nnnn1-c1ccc(C)c(C)c1	-12%
C=CC(C)(C)c1[nH]c2ccccc2c1C1=C(O)C(=O)C(c2c[nH]c3c(CC=C(C)C)cccc23)=C(O)C1=O	7.9µM*
O=C(CSc1nnc(-c2cccnc2)o1)Oc1ccccc1	1%
COc1ccccc1NC(=O)CSc1nnc(-c2ccccn2)n1Cc1ccco1	-5%
O=C(O)C(Sc1ccc(Cl)cc1)Sc1ccc(Cl)cc1	?
COCc1cc(C)nc(SCC(=O)N2CCC(C)CC2)c1C#N	-1%
Cc1ccc(CN2CCN(Cc3ccc(C)o3)[C@@H](C)C2)o1	6%[11.4 µM]
COc1ccc(CCn2c(-c3ccco3)nc3oc4ccccc4c(=O)c3c2=O)cc1	-3%
CC(C)CN(CC(C)C)C(=O)CS(=O)(=O)Cc1ccccc1	?
COc1ccc(C2C(C(=O)N3CCOCC3)=C(C)NC3=C2C(=O)CC(C)(C)C3)cc1O (stereo unspecified)	-18%
CCCNC(=O)NC1C(NC(=O)NCCC)N(C)C(=O)N1C (stereo unspecified)	5%
CC(=O)NC1C(=O)N=C(SCC(=O)NC(C)c2ccccc2)NC1=O (stereo unspecified)	-17%
CC(C(=O)Nc1ccccn1)N1C(=O)C2C3C=CC(C3)C2C1=O (stereo unspecified)	-2%
CC1CC1C(=O)OCC(=O)NCc1ccccc1Cl (stereo unspecified)	1%
CCCCCn1c(CNC(=O)COC)nc2ccccc21	6%
CCN(CC)S(=O)(=O)c1ccc2c(c1)nc(CCC(=O)OCC(=O)N1CCc3ccccc31)n2C	?
O=C1c2ccccc2C(=O)N1CCC(c1ccc(F)cc1)c1ccco1 (stereo unspecified)	-2%
O=C(CSc1nnc(COc2cccc3ccccc23)o1)N1CCN(C(=O)c2ccco2)CC1	-5%
c1ccc(C2C3=C(CCCC3)Nc3ncnn32)cc1 (stereo unspecified)	-15%
CCCS(=O)(=O)N1CCC(C(=O)NCC2CCCO2)CC1 (stereo unspecified)	2%
O=C(CC(=O)c1ccccc1)c1ccccc1	-17%
O=C1CCC(c2ccccc2)N1C(=O)c1cccnc1 (stereo unspecified)	2%
O=C(O)c1ccccc1-c1ccccc1C(=O)Nc1ccc2c(c1)[nH]c(=O)c1ccccc12	-7%[11.4 µM]
O=C(Nc1cnccn1)C1c2ccccc2Oc2ccccc21	7%
O=C(Nc1nccs1)C1CCCN(S(=O)(=O)c2cccnc2)C1 (stereo unspecified)	1%
CCOC(=O)CSC1=C(C#N)C(c2ccco2)C(C(=O)Nc2cccc(C(F)(F)F)c2)=C(C)N1 (stereo unspecified)	107%[activator]
CC(=O)N(c1ccccc1)c1c(F)c(F)c(F)c(F)c1F	4%
COc1ccc2nc(Nc3nc(C)c(C(C)=O)s3)sc2c1	-30%
O=C(Nc1nccs1)c1nc(-c2ccccc2)n(-c2ccccc2)n1	4%
Continuation:
SMILES	HSD17B inhib
CC(CCO)Nc1nc2c([nH]1)c(=O)n(C)c(=O)n2C (stereo unspecified)	4%
N#Cc1nc(Cc2ccccc2)oc1N1CCN(c2cccc(Cl)c2)CC1	8%
c1cncc(-c2nc(NCc3ccco3)c3ccccc3n2)c1	16µM*
Cc1ccc2cc(CCNC(=O)c3ccco3)c(=O)[nH]c2c1C	?
Cc1ccccc1C(=O)N1CCN(c2nc(N3CCOCC3)nc(N3CCOCC3)n2)CC1	6%
COC(=O)N/C(C)=C1/NC(=O)c2ccccc2C(c2ccccc2)N1 (stereo unspecified)	14%
CCOCCCNC(=O)c1cn(C)c(=O)c2cc(OC)c(OC)cc12	-13%
Cn1cc(S(=O)(=O)N2CCC(Cc3ccccc3)CC2)c(=O)n(C)c1=O	4%
CCn1cc(C(=O)NCc2ccc3c(c2)OCO3)c2cc(OC)c(OC)cc2c1=O	-20%
Cn1c(=O)c2c(SC3CCCC3)nc(CC(C)(C)C)nc2n(C)c1=O	9%
COc1cc(C)c(CNc2ccc(OC)c(OC)c2)cc1C	?
COc1ccc2c3c(c(=O)oc2c1OCC(N)=O)CCCC3	16µM*
CN(C)c1nc(SCCOC(=O)COc2ccc(Cl)cc2Cl)nc(N(C)C)n1	9%
N#C/C(=C\c1c[nH]c2ccccc12)C(=O)c1ccc(O)c(O)c1	13µM*
Cc1cccc(N2CCN(C(=O)C3CCCN(S(=O)(=O)c4cccc5cccnc45)C3)CC2)c1C (stereo unspecified)	5%
CCNc1nc(OC)nc(Oc2ccc(=O)n(-c3ccccc3)n2)n1	1%
Cc1ccc2[nH]c3c(=O)n(CCN4CCNCC4)cnc3c2c1	-22%
CC1(C)CC(=O)C2=C(C1)N(Cc1ccco1)C(=O)C2(NC(=O)C1CCCCC1)C(F)(F)F (stereo unspecified)	-2%
N#Cc1ccc(C23CC4(C2)[C@H](CN(Cc2ccc(C(F)(F)F)cc2)[C@@H]4c2ccccc2)C3c2ccccc2)cc1 (stereo partly specified)	6%
Cc1cc(NC(=O)Cn2cnc3c2c(=O)n(C)c(=O)n3C)n(-c2ccccc2)n1	-2%
O=C(NCCCN1CCN(c2ccccc2F)CC1)C1CCC(=O)N1C1CCCCC1 (stereo unspecified)	-1%
CCOc1ccccc1NS(=O)(=O)c1ccc(OC)c(OC)c1	7%
COc1ccccc1N1CCN(C2=CC(=O)CCC2)CC1	5%
COc1ccc([C@@H](Nc2ccccn2)c2cc(C(C)(C)C)cc(C(C)(C)C)c2O)cc1	-1%[11.4 µM]
COc1cccc2cc(C(=O)C3=C(O)C(=O)N(Cc4ccco4)C3c3cccnc3)oc12 (stereo unspecified)	-25%
C/C(=C\c1ccc(Cl)cc1)C(C)(C)C(=O)O	1%[11.4 µM]
CCOC(=O)NCCc1c(C)nc2c(c(C)nn2C(C)(C)C)c1C	-18%
COC(=O)c1cc2sccc2n1CC(=O)Nc1cc(OC)cc(OC)c1	-4%
CC(C)(C)NC(=O)CSc1nccn1Cc1ccccc1	0%
COc1cc(/C=C/C(=O)N2CCCCC2=O)cc(OC)c1OC	34%[activator]
CN(C)S(=O)(=O)c1ccc(NC(=O)c2ccccn2)cc1	0%
CCOCCCNC(=O)C1CCC(=O)N1CCc1ccccc1 (stereo unspecified)	2%
c1coc(-c2nn3c(-c4ccco4)nnc3s2)c1	-10%
N#C/C(=C\c1ccc[nH]1)Sc1nc2ccccc2s1	?
CCOC(=O)CSC1=C(C#N)C(c2ccc(C)cc2)C2=C(CCCC2=O)N1 (stereo unspecified)	96%[activator]
O=C(NCCC(=O)N1CCN(c2ncccn2)CC1)c1ccccc1	-18%
Cc1ccc(C)c(-c2nc3ccc(N)cc3[nH]2)c1	25µM*
Cc1cc(C(=O)COC(=O)Cn2c(C(F)(F)F)nc3ccccc32)c(C)n1Cc1ccco1	6%
Cc1oc(/N=C/c2cccc3ccccc23)c(C#N)c1C	?
CCOC(=O)c1[nH]c2ccc(F)cc2c1NC(=O)c1cc(OC)c(OC)c(OC)c1	23%
CCC(C)Oc1cccc(OCCCCN2C(=O)NC(C)(C)C2=O)c1 (stereo unspecified)	?
COc1cc(NC(=O)c2cc(CC(C)C)on2)c(OC)cc1Cl	-17%
CCOc1ccc2nc(NC(=O)Cn3cnc4c3c(=O)n(C)c(=O)n4C)sc2c1	-4%
O=C(OCC(=O)N1CCCCCC1)c1n[nH]c(=O)c2ccccc12	-3%
COCC(=O)Nc1sc2c(c1C(=O)OC)C(C(=O)OC)CC2 (stereo unspecified)	-28%
CCn1c(SCC(=O)c2ccc(CNC(C)=O)o2)nnc1-c1cccs1	-10%
Cc1cccc(N(CC(=O)N2CCCC2)S(=O)(=O)c2ccccc2)c1C	4%
Cc1nnc(SCC(=O)Nc2ccc(Cl)cn2)n1Cc1ccccc1	3%
COCCNC(=O)Cn1nc(C(F)(F)F)cc1C	0%
Nc1ccc2oc(=O)c3ccccc3c2c1	-15%
New compounds follow
SMILES	HSD17B inhib
CC(C)c1nc(C#N)c(NCCCn2ccnc2)o1	1%
COc1ccccc1Oc1ccc2c(c1)C(=O)N(c1ccc(O)cc1)C2=O	6%
CCSc1nc2cc(C(=O)OC)ccc2c(=O)n1CC	?
O=C(CSc1nnnn1C1CCCC1)NCc1ccc2c(c1)OCO2	-1%
CC(NC(=O)c1ccccc1)c1nc2ccccc2n1Cc1ccc(C#N)cc1 (stereo unspecified)	5%
CCOc1ccc(Oc2nc(NCC(C)C)nc(OC)n2)nn1	10%
Cc1cc(NC(=O)c2noc3c2CCCCC3)nn1Cc1ccc(Cl)cc1	16%
CCC(C)(C(=O)NC1CCCCC1)N(CC1CCCO1)C(=O)c1ccccn1 (stereo unspecified)	14%
COc1ccc(OC)c(NC(=O)C(CC(=O)O)NCc2ccco2)c1 (stereo unspecified)	-7%
CC(=O)Nc1c(C#N)c(C(C)(C)C)cn1C	2%

3 records picked at random from the list so far:
SMILES	HSD17B inhib
CCSc1nc2cc(C(=O)OC)ccc2c(=O)n1CC	?
CC(C)c1nc(C#N)c(NCCCn2ccnc2)o1	1%
Cc1cc(NC(=O)c2noc3c2CCCCC3)nn1Cc1ccc(Cl)cc1	16%

Remaining list, next part.
SMILES	HSD17B inhib
COc1cc(C2C3C(=O)N(c4ccccc4)C(=O)C3ON2c2ccccc2)cc(OC)c1OC (stereo unspecified)	7%
Cc1nc2cnc(N3CCNCC3)nc2n(-c2ccccc2)c1=O	32µM*
CCOC(=O)c1cccc(N2C(=O)C3C(C(=O)NC4CC4)C4(C)C=CC3(O4)C2C(=O)NC(C)(C)C)c1 (stereo unspecified)	8%
Cc1cccc(C2N(c3ccc(F)cc3)C(=O)C3CCCN32)c1 (stereo unspecified)	5%

Six entries from above, ordered by SMILES length, rising:
SMILES	HSD17B inhib
CC(=O)Nc1c(C#N)c(C(C)(C)C)cn1C	2%
Cc1nc2cnc(N3CCNCC3)nc2n(-c2ccccc2)c1=O	32µM*
Cc1cccc(C2N(c3ccc(F)cc3)C(=O)C3CCCN32)c1 (stereo unspecified)	5%
COc1ccc(OC)c(NC(=O)C(CC(=O)O)NCc2ccco2)c1 (stereo unspecified)	-7%
CCC(C)(C(=O)NC1CCCCC1)N(CC1CCCO1)C(=O)c1ccccn1 (stereo unspecified)	14%
COc1cc(C2C3C(=O)N(c4ccccc4)C(=O)C3ON2c2ccccc2)cc(OC)c1OC (stereo unspecified)	7%
